Screening results from PubChem.
SARS PLpro yeast: qHTS of Yeast-based Assay for SARS-CoV PLP; S. cerevisiae expressing SARS-CoV PLpro, growth rescue; control for the full effect not named in the record; Potency, µM (doses to about 32.9 µM), for inactives: at the top dose activity, positive = growth rescue; hit rate 0.19% among 330,000; active means well fitted rising curve with a large enough effect; inconclusive means small, poorly fitted or top-dose-only effect; inactive means no such curve, though single readings can be large or run the other way; also: 0% is about no effect; nearly all actives have a fitted effect of over 55% in size; growth read by luminescence after 48 h
Lassa entry inh: qHTS for Inhibitors of binding or entry into cells for Lassa Virus; Potency, µM (doses to about 37.9 µM), inactives show at the top dose activity change, negative = inhibition, actives largely listed as inhibitors; hit rate 1.2% among 300,000; AID 540256, 2011; Lassa virus pseudotype entry inhibition, cell reporter; control for the full effect not named in the record; active means well fitted inhibition curve with a large enough effect; inconclusive means small, poorly fitted or top-dose-only effect, or effect the other way; inactive means flat fitted curve, though single readings scatter; tested in HEK293 cells; also: % is scaled to controls: 0 for no effect and ±100 for the full control effect; nearly all actives have a fitted effect of over 50% in size; luciferase read-out
Marburg entry inh: qHTS for inhibitors of binding or entry into cells for Marburg Virus; Marburg virus pseudotyped entry inhibition, cell reporter; control for the full effect not named in the record; about a third of the inactives were read at about 46 µM; Potency, µM (top dose mostly 37.8 µM), for inactives: top-dose activity change, negative = inhibition, hits mostly inhibitors; hit rate 1.8% among 300,000; AID 540276, 2011; active = well fitted inhibition curve with a large enough effect; inconclusive = small, poorly fitted or top-dose-only effect, or effect the other way; inactive = flat fitted curve, though single readings scatter; tested in HEK293 cells; about a fifth of its hits are not listed in these tables; also: % is scaled to controls: 0 for no effect and ±100 for the full control effect; luciferase read-out
Cruzain inh Det: qHTS Assay for Promiscuous and Specific Inhibitors of Cruzain (with detergent). Cruzipain (Trypanosoma cruzi), P25779. purified cruzain, Z-FR-AMC fluorescence, 0.01% Triton. Potency, µM, without a hit: max response, negative = inhibition, usual class: inhibitors. hit rate 0.43% among 200,000;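 also: plate controls were neutral wells for no effect and buffer without enzyme for full effect; nearly all actives have a fitted effect of over 40% in size; top concentration of the series not given in the record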
Target sequence (P25779 123-467 limits assumed): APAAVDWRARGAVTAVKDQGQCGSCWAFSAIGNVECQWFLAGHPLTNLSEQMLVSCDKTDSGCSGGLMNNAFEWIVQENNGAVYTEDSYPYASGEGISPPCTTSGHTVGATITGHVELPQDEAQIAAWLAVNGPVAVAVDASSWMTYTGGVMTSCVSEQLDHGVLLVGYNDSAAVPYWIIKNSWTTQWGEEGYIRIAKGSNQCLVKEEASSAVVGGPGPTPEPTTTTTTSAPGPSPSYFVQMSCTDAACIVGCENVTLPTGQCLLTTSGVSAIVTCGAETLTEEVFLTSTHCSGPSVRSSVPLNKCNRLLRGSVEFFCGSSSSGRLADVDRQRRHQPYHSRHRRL
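Compounds were screened in titration against cruzain (1.5 nM) with 0.01% Triton X-100 to counter colloidal aggregation. Activity was the AMC fluorescence increase over 60 s after adding 2 uM Z-FR-AMC at pH 5.5.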
NS1 inh: qHTS Assay for Inhibitors of Influenza NS1 Protein Function; S. cerevisiae slowed by influenza A NS1, growth recovery by OD600; Potency, µM (doses to about 46.1 µM), for inactives: top-dose activity, positive = more growth; hit rate 0.4% among 270,000; AID 2326, 2010; active means well fitted rising curve with a large enough effect; inconclusive means small, poorly fitted or top-dose-only effect; inactive means no such curve, though single readings can be large or run the other way; also: nearly all actives have a fitted effect of over 50% in size
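OD600 was taken as the measure of yeast growth restored by compound in an NS1-expressing S. cerevisiae strain. Cells had been washed out of glucose medium and diluted 1:100 into galactose -URA medium, pH 6.0.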
Cruzain noTriton: qHTS Assay for Promiscuous and Specific Inhibitors of Cruzain (without detergent) | purified cruzain, Z-FR-AMC fluorescence, no detergent | Potency, µM, for inactives: max response, negative = inhibition, most hits filed as inhibitors | hit rate 2.3% among 200,000;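 also: plate controls were enzyme without inhibitor for no effect and buffer without enzyme for full effect; nearly all actives have a fitted effect of over 40% in size; top concentration of the series not given in the record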
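Purified cruzain at 1.5 nM, pre-incubated 15 min with compound at room temperature in 100 mM sodium acetate pH 5.5, 5 mM DTT, 0.00005% Triton X-100. Reaction started with 2 uM Z-FR-AMC; AMC fluorescence increase over 60 s gives rate.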
2A StopGo: High Throughput Screening for Foot and Mouth Disease Virus Antivirals. human cells with a luciferase reporter of 2A StopGo recoding; control for the full effect not named in the record. hit rate 1.2% among 410,000. Potency, µM (series often up to 57.9 µM), for inactives: at the highest dose signal change, negative = less light; active = well fitted falling curve with a large enough effect; inconclusive = small, poorly fitted or top-dose-only effect; inactive = no such curve, though single readings can be large or run the other way; tested in HEK293T cells; also: % is scaled to controls: 0 for no effect and ±100 for the full control effect; nearly all actives have a fitted effect of over 45% in size; luciferase light after 4 h
RE007 growth inh: qHTS Assay for Inhibitors of the HIV-1 protein Vpr; S. pombe RE007 Vpr strain, BacTiter-Glo ATP luminescence, 24 h; control for the full effect not named in the record; Potency, µM (doses to about 92.2 µM), without a hit: at the highest dose activity change, negative = less growth; hit rate 0.21% among 360,000; active = well fitted falling curve with a large enough effect; inconclusive = small, poorly fitted or top-dose-only effect; inactive = no such curve, though single readings can be large or run the other way;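 also: % is scaled to controls: 0 for no effect and ±100 for the full control effect; nearly all actives have a fitted effect of over 50% in size; the assay follows cell death caused by Vpr and the record does not say whether a fall means rescue or toxicity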
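Fission yeast strain RE007, carrying one chromosomally integrated HIV-1 vpr copy, was seeded at OD 0.01 in PMG+AL medium with 23 nL pinned compound. After 24 h at 30 °C and 99% humidity, viability was read by BacTiter-Glo luminescence.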
* hit, by the source's call; & = joins results of further samples; [ ] = remark or other dose. Unless noted, calls follow the shape of the dose curve; as a rule, active = well fitted curve in the direction sought with a large enough effect; inconclusive = small, poorly fitted or top-dose-only effect, or another doubt; inactive = no such curve, though single readings can be large; an effect the other way counts as inactive or inconclusive. Potency is read from the fitted curve at half-maximal effect.

What do the screens show for `NC(=O)/C(=C/c1ccco1)NC(=O)/C=C/c1ccccc1`?
SARS PLpro yeast: 2.7%; Lassa entry inh: 6.8%; Marburg entry inh: 5.8%; Cruzain inh Det: -10.2%; NS1 inh: 8.1%; Cruzain noTriton: 2.1%; 2A StopGo: 1.7%; RE007 growth inh: 7.8%

What do the screens show for `O=[N+]([O-])c1ccc(OCC(O)CN2CCN(c3ccccc3F)CC2)cc1` (stereo not drawn)?
SARS PLpro yeast: -15.8%; Lassa entry inh: 5.5%; Marburg entry inh: inconclusive; Cruzain inh Det: -4.8%; NS1 inh: -3.8%; Cruzain noTriton: 1.3%; 2A StopGo: inconclusive; RE007 growth inh: 3.1%

What do the screens show for `Cc1cc2cc(CNC(=O)NC3CCCCC3)ccc2n1C`?
SARS PLpro yeast: -5.4%; Cruzain inh Det: -2.4%; NS1 inh: 28.2%; Cruzain noTriton: inconclusive; 2A StopGo: 3.7%; RE007 growth inh: -5.8%

What do the screens show for `CCCCc1ccc(NC2=NCCCS2)cc1`?
SARS PLpro yeast: -1.1%; Lassa entry inh: inconclusive; Marburg entry inh: inconclusive; NS1 inh: -5.0%; 2A StopGo: 6.2%; RE007 growth inh: -17.7%

What do the screens show for `CCOC(=O)CSc1nc2cc(C)cc(C)c2cc1C#N`?
SARS PLpro yeast: -3.0%; Lassa entry inh: inconclusive; Marburg entry inh: 22.0%; Cruzain inh Det: -4.3%; NS1 inh: -10.4%; Cruzain noTriton: -4.0%; 2A StopGo: 30.4%[activator]; RE007 growth inh: -9.5%

What do the screens show for `Nc1nc(SCc2ccccc2)c2ncn(C3CCCCC3)c2n1`?
Lassa entry inh: -16.4%[46.1 µM]; Marburg entry inh: inconclusive; 2A StopGo: -0.3%; RE007 growth inh: -3.5%

How did CC1CCCC(NC(=O)COC(=O)c2ccccc2[N+](=O)[O-])C1C (stereo not drawn) do in these assays?
SARS PLpro yeast: -15.4%; Lassa entry inh: 18.2%; Marburg entry inh: 21.4%[46.1 µM]; 2A StopGo: 61.1%[activator]; RE007 growth inh: 26.8%

Results for Cc1nc(NC(=O)c2ccccc2)sc1C1(C)CC(c2ccccc2F)=NO1 (stereo not drawn) ?
SARS PLpro yeast: 7.6%; NS1 inh: inconclusive; 2A StopGo: 41.1%[activator]; RE007 growth inh: 1.6%

How did O=C(Nc1cc(S(=O)(=O)N2CCCCC2)ccc1N1CCCCC1)c1ccncc1 do in these assays?
SARS PLpro yeast: 0.7%; NS1 inh: -7.8%; 2A StopGo: -14.7%; RE007 growth inh: -2.5%

What do the screens show for `Cc1cc(CNC(=O)CCc2nnc(CCCc3ccccc3)o2)nn1C`?
SARS PLpro yeast: 0.0%; Lassa entry inh: 0.5%; Marburg entry inh: 13.1%; NS1 inh: 2.1%; 2A StopGo: 44.0%[activator]; RE007 growth inh: 1.8%

How did COc1cccc(C(=O)NCCSCc2ccccc2Cl)c1 do in these assays?
SARS PLpro yeast: inconclusive; NS1 inh: -44.0%; 2A StopGo: 53.1%[activator]; RE007 growth inh: 0.2%

How did CCOC(=O)N1CCN(C(=O)CN(C2CCCCC2)S(=O)(=O)c2ccc(C)cc2)CC1 do in these assays?
SARS PLpro yeast: -0.7%; Lassa entry inh: inconclusive; Marburg entry inh: -3.1%&-3.1%; Cruzain inh Det: 0.0%; NS1 inh: -41.9%; Cruzain noTriton: inconclusive; 2A StopGo: -15.6%; RE007 growth inh: -2.1%

How did COc1cc2c(cc1OC)C(c1ccccc1)N(S(C)(=O)=O)CC2 (stereo not drawn) do in these assays?
SARS PLpro yeast: 0.1%; NS1 inh: 2.4%; 2A StopGo: -8.9%; RE007 growth inh: 9.4%

How did NS(=O)(=O)c1ccc(CCNC(=O)CCC2COc3ccccc3O2)cc1 (stereo not drawn) do in these assays?
SARS PLpro yeast: 21.2%; Lassa entry inh: -3.4%; Marburg entry inh: 0.0%; Cruzain inh Det: -0.9%; NS1 inh: -1.5%; Cruzain noTriton: 2.1%; 2A StopGo: 0.0%; RE007 growth inh: -2.2%

Results for CCCOc1ccc(/C=N/O)cc1 ?
SARS PLpro yeast: -4.8%; Lassa entry inh: inconclusive; Marburg entry inh: inconclusive; Cruzain inh Det: 2.3%; NS1 inh: -33.6%; Cruzain noTriton: -9.5%; 2A StopGo: 20.7%; RE007 growth inh: -23.0%

What do the screens show for `Cc1cc(C)c2[nH]c(=O)c(C(c3nnnn3C3CCCC3)N3CCOCC3)cc2c1` (stereo not drawn)?
SARS PLpro yeast: 6.6%; Marburg entry inh: -0.2%; Cruzain inh Det: -0.3%; NS1 inh: -6.0%; Cruzain noTriton: 1.2%

Results for CC(C)CCNC(=O)C(c1ccncc1)N(Cc1cccs1)C(=O)Cn1nnc(-c2ccc(F)cc2)n1 (stereo not drawn) ?
SARS PLpro yeast: -9.9%; Lassa entry inh: -1.2%; Marburg entry inh: -32.9%; Cruzain inh Det: -9.2%; NS1 inh: -8.1%; Cruzain noTriton: 18.4%; 2A StopGo: -7.9%; RE007 growth inh: 1.1%

How did Cc1cc(C2(O)C(=O)Nc3ccccc32)ccc1F (stereo not drawn) do in these assays?
SARS PLpro yeast: -2.5%; Lassa entry inh: 1.3%[46.1 µM]; Marburg entry inh: 3.3%[46.1 µM]; NS1 inh: 5.7%; 2A StopGo: 15.9%; RE007 growth inh: -13.7%

What do the screens show for `O=C(c1cc(S(=O)(=O)N2CCOCC2)c(Cl)cc1Cl)N1CCCCC1CO` (stereo not drawn)?
SARS PLpro yeast: 0.3%; Lassa entry inh: 10.6%; Marburg entry inh: 7.0%[46.1 µM]; NS1 inh: 0.1%; 2A StopGo: 19.6%; RE007 growth inh: 2.5%

Results for COc1ccc(OCCCC(=O)Nc2nncs2)cc1 ?
SARS PLpro yeast: -20.0%; Lassa entry inh: -3.4%; Marburg entry inh: 18.2%; Cruzain inh Det: 0.9%; NS1 inh: -0.6%; Cruzain noTriton: -15.2%; 2A StopGo: 11.3%; RE007 growth inh: 1.2%

How did Cc1ccc(OCCCCn2cnc3ccccc32)cc1 do in these assays?
SARS PLpro yeast: 0.8%; Lassa entry inh: -1.2%&18.8%[46.1 µM]; Marburg entry inh: -7.2%&7.7%[46.1 µM]; Cruzain inh Det: -7.3%; Cruzain noTriton: 11.8%; 2A StopGo: -10.3%&-19.5%; RE007 growth inh: -18.3%

How did Cc1ccc(-c2nc(NCc3cccnc3)c3ccccc3n2)cc1 do in these assays?
SARS PLpro yeast: -13.8%; Lassa entry inh: 4.6%; Marburg entry inh: 23.7%; Cruzain inh Det: -5.2%; NS1 inh: -30.3%; Cruzain noTriton: -7.7%; 2A StopGo: 19.0%; RE007 growth inh: -15.4%

How did CN(C(=O)C(C)(C)C)C1c2c(ccc3ccccc23)OCC1CO (stereo not drawn) do in these assays?
SARS PLpro yeast: 6.2%; Lassa entry inh: inconclusive; Marburg entry inh: -41.0%; NS1 inh: 0.4%; 2A StopGo: inconclusive; RE007 growth inh: -2.6%

What do the screens show for `CS(=O)(=O)N(CC(=O)Nc1ccccc1C(=O)N1CCOCC1)c1ccc2c(c1)OCO2`?
SARS PLpro yeast: 2.4%; Lassa entry inh: 5.8%; Marburg entry inh: 2.2%; Cruzain inh Det: 9.6%; NS1 inh: -3.5%; Cruzain noTriton: -8.2%; 2A StopGo: 8.8%; RE007 growth inh: -3.6%

How did COc1ccc(N2CCN(CC(=O)NCc3ccc(Cl)cc3)CC2)cc1 do in these assays?
SARS PLpro yeast: 1.8%; Lassa entry inh: inconclusive; Marburg entry inh: inconclusive; NS1 inh: -13.0%; 2A StopGo: 0.1%; RE007 growth inh: 12.6%

What do the screens show for `N/C(Cc1ccc(Cl)cc1)=N\OC(=O)C1CCCCC1`?
SARS PLpro yeast: -95.4%; Lassa entry inh: 14.9%; Marburg entry inh: 20.2%; Cruzain inh Det: -2.3%; NS1 inh: -62.9%; Cruzain noTriton: 9.8%; 2A StopGo: 27.3%; RE007 growth inh: -22.4%

Results for CC(=O)Nc1ccc(S(=O)(=O)N2CCN(c3ccccc3)CC2)cc1 ?
Lassa entry inh: -6.7%[46.1 µM]; Cruzain inh Det: -1.0%; Cruzain noTriton: 4.9%; 2A StopGo: -23.6%

Results for COc1ccc(NS(=O)(=O)N2CCCCC2)cc1 ?
Lassa entry inh: 18.6%[46.1 µM]; Marburg entry inh: 16.2%[46.1 µM]; 2A StopGo: -2.0%; RE007 growth inh: 9.5%

Results for O=C(c1ccco1)N1CCN(c2nc3ccccc3n3nnnc23)CC1 ?
SARS PLpro yeast: -14.4%; Lassa entry inh: 4.2%; Marburg entry inh: 16.8%; Cruzain inh Det: -2.3%; NS1 inh: 2.6%; Cruzain noTriton: -15.9%; 2A StopGo: -24.8%; RE007 growth inh: -9.1%

What do the screens show for `O=C(NNC(=O)c1ccccc1OCc1ccc(F)cc1)c1ccccc1O`?
SARS PLpro yeast: 7.8%; Lassa entry inh: inconclusive; Marburg entry inh: inconclusive; NS1 inh: -9.2%; 2A StopGo: -21.8%; RE007 growth inh: -17.4%

Results for Nc1nc2n(n1)C(c1cccs1)CC(c1ccc(F)cc1)N2 (stereo not drawn) ?
SARS PLpro yeast: -2.7%; Lassa entry inh: 1.9%; Marburg entry inh: -0.6%&-0.6%; Cruzain inh Det: 5.7%; NS1 inh: 2.2%; Cruzain noTriton: 6.9%; 2A StopGo: -6.1%; RE007 growth inh: 6.1%

How did O=C(NCc1ccc(Cl)cc1)C(=O)c1cn(CC(=O)N2CCOCC2)c2ccccc12 do in these assays?
SARS PLpro yeast: -2.1%; NS1 inh: 5.3%; 2A StopGo: -10.2%; RE007 growth inh: -5.3%
